Source: PubChem
Mtb bLac sens = beta-lactam sensitization of Mtb H37Rv | M. tuberculosis H37Rv growth with meropenem, percent inhibition; hits of this screen are not shown here | inhibition, % at 25 µM | actives 0.27% (n = 330,000) | AID 434955;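 active means about 74% or more and at least 40 points above the plate without the antibiotic, then above 30% in a dose series; inconclusive means first-round hits that could not be retested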;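 further: growth measured after seven days incubation then overnight dye step; 0% = bacteria only wells and 100% = bacteria with antibiotic; twin plates without the antibiotic show which effects depend on it; some results filed as inactive read as strong as hits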
Starred values were filed as active, the others as inactive; u = inconclusive; & = joins results of further samples. Not all compounds are listed (hit frequency here may not be typical).

SMILES | Mtb bLac sens
CC(OC(=O)c1cc2ccccc2[nH]1)C(=O)N(C)c1ccccc1 (centres undefined) | 5
Cc1cc(C)cc(OCCNC(=O)CCc2ccccc2)c1 | -2
COc1cccc(-c2csc3ncnc(Sc4nnnn4C)c23)c1 | 78
CCCCCC#CCN1CCN(C23CC4CC(CC(C4)C2)C3)CC1 | 90
COc1ccc(C=NNC(=O)c2ccccc2OCc2ccc(F)cc2)c(OC)c1 | 4
Cc1ccc(O)c(C(=O)c2cnc3c(c2)c(C)nn3C)c1 | 2
N#Cc1ccccc1OCC(=O)Nc1ccc(S(=O)(=O)N2CCOCC2)cc1 | -7
COc1ccc2sc(-c3ccc(S(C)(=O)=O)cc3)c(-c3ccc(C(N)=O)cc3)c2c1 | 10
O=C(CN1CCN(C(=O)c2ccccc2)CC1)Nc1cc(S(=O)(=O)N2CCCC2)ccc1Cl | 1
CC(C)[C@H](NC(=O)c1ccccc1Cl)C(=O)OCC(=O)NC(=O)NCc1ccco1 | 0
CC(C(=O)NC1CCCCC1)N1CCN(S(=O)(=O)c2cccs2)CC1 (centres undefined) | 4
O=C(Nc1ccc(Br)cc1)c1cccc(-n2cnnn2)c1 | -2
C=CCC(NC(=O)Cc1ccccc1)C(=O)NCCC (centres undefined) | 4
CC(C)[C@H](NC(=O)c1ccc(C(C)(C)C)cc1)C(=O)N1CCN(Cc2ccc3c(c2)OCO3)CC1 | 52
CN(c1ccccc1)S(=O)(=O)c1cccc(C(=O)NC2CCCC2)c1 | -1
CC(=O)Nc1ccc(SCC(=O)N(C)CC(=O)Nc2ccccc2Cl)cc1 | -5
CCCN(CCC)Cc1c(C(=O)N/N=C/c2ccco2)nnn1-c1nonc1N | -3
O=C(OCCOc1ccccc1F)c1cccc(S(=O)(=O)N2CCOCC2)c1 | -1
CC(=O)c1c(C)[nH]c(C(=O)Nc2cc(S(=O)(=O)N3CCCCC3)ccc2C)c1C | -3
COc1ccc2c(c1)oc1c(SCc3nc4ccccc4[nH]3)nc(C)nc12 | -5
CCC(NC(=O)C(C)NC)C(=O)N1CCCC1C(=O)NC1CCCc2ccccc21 (centres undefined) | 5
COc1ccc(NC(=O)COC(=O)c2cc(C)oc2C)cc1OC | -1
Cc1onc(-c2c(F)cccc2Cl)c1C(=O)Nc1ccc(Cl)c(S(=O)(=O)N(C)C)c1 | -4
C[C@H]1CN=C(N(C)C)N1CCC1CCCC1 | -3
CCOC(=O)[C@H]1[C@H]2COc3ccc(C)cc3[C@@H]2N2C(=O)c3cc(F)ccc3NC(=O)[C@@]12C | -5
COc1ccc(S(=O)(=O)N2CCCCCC2)cc1C(=O)NCCc1ccc(F)cc1 | -3
c1ccc(Nc2cccc3ccccc23)cc1 | -1
C[C@H](CO)N1C[C@H](C)[C@@H](CN(C)CC2CC2)Oc2c(NS(=O)(=O)c3ccccc3)cccc2C1=O | 2
O=C(COC(=O)CNC(=O)c1ccc(F)cc1)NC1CCCc2ccccc21 (centres undefined) | -4
Cc1ccc(C(=O)N2CC(C)CC(C)C2)cc1S(=O)(=O)N1CCCCC1 (centres undefined) | -1
Cc1cc(C(=O)N2CCC(C(N)=O)CC2)c(C)o1 | 2
Cc1cccc(C(=O)OCC(=O)NC(=O)c2ccccc2)c1O | -11
CCN(C(=O)CSc1nnc(C2CC2)n1-c1ccccc1)C1CCS(=O)(=O)C1 (centres undefined) | -8
Cc1ccc(S(=O)(=O)Nc2ccc3cn[nH]c3c2)cc1 | 7
Cc1cc(Br)ccc1NC(=O)CNC(=O)CSc1nccn1C | 2
Cc1noc(C)c1S(=O)(=O)NCc1ccc(CN(C)C)cc1 | 5
O=C(c1ccc(COc2ccccc2)o1)N1CCN(S(=O)(=O)c2ccccc2Cl)CC1 | 6
CN(CC(=O)NCCc1ccc(S(N)(=O)=O)cc1)CC(=O)Nc1ccccc1Cl | -2
CCOC(=O)c1ccccc1NC(=O)Cc1ccc(OC)c(S(=O)(=O)N2CCOCC2)c1 | -8
CC(=O)Nc1ccc(S(=O)(=O)Nc2nnc(Cc3ccc(Cl)cc3)s2)cc1 | -4
Cc1nnc(SCC(=O)N2CC(C)OC(C)C2)n1-c1ccccc1 (centres undefined) | -4
Cc1cc(CN2CCC(N3CCC(C(=O)NC4CC4)CC3)CC2)cc(C)c1O | u
COc1cc(NC(=O)CCc2c(C)noc2C)c(Cl)cc1C(=O)O | -1
Cc1cccc(NC(=O)C(C)Sc2nc3nc(C)cc(C)n3n2)c1 (centres undefined) | -10
CC(C)C(NC(=O)c1ccccc1NC(=O)C(C)(C)C)C(=O)N1CCOCC1 (centres undefined) | 0
CC(CNC(=O)Cn1cnc2c(OCc3ccccc3)ncnc21)c1ccccc1 (centres undefined) | -7
O=C(Cc1cccc(NC(=O)C2CCCN(C(=O)C3CCC3)C2)c1)Nc1cccc(C(=O)N2CCCC2)c1 (centres undefined) | 3
O=C(Nc1cccc(S(=O)(=O)N2CCOCC2)c1)C12CC3CC(CC(C3)C1)C2 | -2
CCCCN(C(=O)c1ccc(-c2ccc(Cl)cc2)o1)c1c(N)n(CCC)c(=O)[nH]c1=O | -2
O=C(/C=C/C=C/c1ccc2c(c1)OCO2)N1CCCCC1 | 1
COC(=O)Cc1ccc(NC(C)=O)cc1 | 1
CN(CC(=O)NCC(c1ccccc1)N1CCCC1)S(=O)(=O)c1ccc(Cl)cc1 (centres undefined) | 10
CCC1(c2ccccc2)NC(=O)N(CC(=O)N(c2ccccc2)C2CCS(=O)(=O)C2)C1=O (centres undefined) | -4
CC(=NNC(=O)c1cccc(S(=O)(=O)N2CCCC2)c1)c1ccccc1 | 2
COc1cc2c(-c3ccc4[nH]ccc4c3)c(-c3ccc(C#N)cc3)oc(=O)c2cc1OC | 87
Nc1ccc(C(=O)N/N=C/c2ccc(N3CCOCC3)s2)cc1 | -1
COc1ccc(-c2c(-c3ccccc3OC)sc3ccccc23)cc1C=O | -5
COC(=O)C1=C(c2ccc(OC)c(OC)c2)C[C@@H]2CC[C@H]1N2C(=O)N1CCC(C)CC1 | -8
CC1CCCC(NC(=O)COC(=O)c2cc(S(=O)(=O)N3CCOCC3)ccc2F)C1C (centres undefined) | -7
NC(=O)c1cc([N+](=O)[O-])ccc1NCc1cccc2ccccc12 | -10
Other compounds:
SMILES | Mtb bLac sens
COC(=O)C1=C(c2ccc(OCc3ccccc3)cc2)C[C@@H]2CC[C@H]1N2C(=O)NCc1ccc(N(C)C)cc1 | 9
COc1ccc2c(c1)OC[C@H]1[C@H]2N2C(=O)c3cc(F)ccc3NC(=O)[C@@]2(C)[C@H]1c1ccccc1 | 1
NC(N)=NCc1cccc(I)c1 | -1
COc1ccc(NC(=O)c2cc(-c3ccccn3)nc3ccccc23)cc1S(=O)(=O)N(C)C | -1
O=C(COC(=O)C1CC2CCCC(C1)C2=O)Nc1cccc(F)c1 (centres undefined) | -7
COc1ccc(NC(=O)N(C)C[C@H]2Oc3c(NS(=O)(=O)c4cccs4)cccc3C(=O)N([C@@H](C)CO)C[C@@H]2C)cc1 | -1
Cc1c(Cc2ccccc2)c(=O)oc2cc(OCC(=O)N3CCC(C(=O)O)CC3)ccc12 | -5
Cc1ccc(NC(=O)CN2C(=O)NC(C)(C3CC3)C2=O)cc1S(=O)(=O)N1CCCCC1 (centres undefined) | -2
CN1CCC[C@@H]1CCNC(=O)c1cccc2c1C(=O)c1ccc(N3CCCC3)cc1S2(=O)=O | 6
CC(=O)c1cccc(OCC(=O)Nc2cccc(C(=O)Nc3c(C)n(C)n(-c4ccccc4)c3=O)c2)c1 | -6
O=C(NCCC(=O)N1CCN(S(=O)(=O)c2ccccc2Cl)CC1)Nc1ccccc1 | -3
CC(C)n1c(SCC(=O)NC2CCCCC2)nnc1-c1ccco1 | -24
C[C@H]1CCC/C=C/[C@@H]2C[C@H](O)C[C@H]2[C@H](O)/C=C/C(=O)O1 | 1&-2
COC(=O)C1=C(c2cccc(C#N)c2)C[C@@H]2CC[C@H]1N2C(=O)NCCc1ccccc1 | -4
O=C(CCCNC(=O)c1ccc(Cl)cc1)Nc1nccs1 | -3
COc1ccc(CCOC2OC(CO)C(OC(=O)/C=C/c3ccc(O)c(OC)c3)C(O[C@H]3O[C@@H](C)[C@H](O)[C@@H](O)[C@H]3O)C2O)cc1O (some centres undefined) | 6
COc1cccc(OC)c1OC(=O)C1CC(=O)N(c2ccc3c(c2)OCCO3)C1 (centres undefined) | 1
COc1ccc(OCc2cc(C(=O)N(C)C(C)c3ccon3)no2)c(Cl)c1 (centres undefined) | -2
Cc1cccc(C(=O)Nc2nnc(SCC(=O)NC3CC3)s2)c1 | 0
COc1ccc(S(=O)(=O)N2CCN(C(=O)c3cccnc3)CC2)cc1OC | -8
CC(C)NC(=O)N(C)C[C@H]1Oc2c(NC(=O)Nc3ccc4c(c3)OCO4)cccc2C(=O)N([C@H](C)CO)C[C@@H]1C | 1
CCOc1ncccc1C(=O)OCC(=O)NCCc1ccc(S(N)(=O)=O)cc1 | -4
Cc1ccccc1C(=O)N[C@H](C(=O)OCC(=O)NC1CC1)C(C)C | -4
CCOc1ccc(S(=O)(=O)NCCC(=O)N2CCN(c3ncccn3)CC2)cc1 | -11
O=C1CCN(Cc2ccccc2)C=C1c1ccc(Cl)cc1 | 0
Cc1onc(-c2ccccc2)c1C(=O)N/N=C/c1c(F)cccc1Cl | -1
CC(=O)C[C@H](O)CC(=O)[C@@H]1OC(=O)CCCCCCCCc2ccccc21 | 5
O=C(COc1ccc2ccc(=O)oc2c1)NC1CCS(=O)(=O)C1 (centres undefined) | -6
COc1ccccc1CN(C)C(=O)CN1CCN(S(=O)(=O)c2ccc3c(c2)OCCCO3)CC1 | -3
CC1CCC(NC(=O)c2cc(C3CC3)nn2-c2ccccc2)CC1 (centres undefined) | 27
CC(=O)CCC(C)=O | -4
O=C(Nc1cccc(S(=O)(=O)NCc2ccco2)c1)c1cccc(Cl)c1 | -5
COCCn1c(SCC(=O)NNC(=O)c2ccccc2)nc2ccccc21 | 1
CC(OC(=O)c1ccco1)C(=O)Nc1ccc(C(F)(F)F)cc1 (centres undefined) | -1
CC(C)(C)[C@H]1COC(=O)CCC/C=C/C[C@H](CC(=O)N(CCO)Cc2ccccc2)C(=O)N1 | 0
C=CC[C@@H](CC(=O)NCCO)C(=O)NC[C@H](OC(=O)[C@@H](CC=C)CC(=O)OC(C)(C)C)c1ccccc1 | 0
CN(C)S(=O)(=O)c1cccc(C(=O)N2CCN(C(=O)C3CCCO3)CC2)c1 (centres undefined) | -2
COc1ccc(-c2c(C#CC(C)(C)O)c3ccccc3n2C)cc1 | 87
Cc1ccccc1N(CC(=O)NC1CCCCC1)C(=O)CCCC(=O)Nc1ccccn1 | -4
O=C(CSc1nnc(-c2ccco2)o1)Nc1c(F)cccc1F | 0
COc1ccc([C@@H]2CC=C(C(=O)O)[C@H](c3ccc(Cl)cc3)N2S(=O)(=O)c2ccc(C)cc2)cc1OC | -19
Cc1ccc(N)cc1O | -1
Cc1ccc(C(=O)NCC(c2ccc(F)cc2)N2CCOCC2)s1 (centres undefined) | -7
CC(NC(=O)COC(=O)COc1ccc(Cl)cc1)c1ccccc1 (centres undefined) | 5
COc1ccc(CN(C)C(=O)c2ccccc2OCc2c(C)noc2C)c(OC)c1 | 1
Cc1ccc(OCCNC(=O)CNC(=O)c2ccccc2Cl)cc1 | -6
O=C(O)COc1ccc(Br)cc1C(c1c(C(=O)O)[nH]c2ccccc12)c1c(C(=O)O)[nH]c2ccccc12 | -6
Cc1cc(Cl)ccc1OCC(=O)NNC(=O)c1ccc(=O)[nH]c1 | 3
O=C(COc1ccccc1F)Nc1ccc2c(c1)CCC2 | 8
CC(=O)N1CCN(CC(O)COc2ccc(S(=O)(=O)N3CCOCC3)cc2)CC1 (centres undefined) | 8
CC(NS(=O)(=O)c1ccc(Cl)c(Cl)c1)C(=O)OCC(=O)N1CCCCCC1 (centres undefined) | 30
O=C(Nc1ccc(N2CCOCC2)cc1)c1ccc(Cl)c(S(=O)(=O)N2CCCCC2)c1 | -9
CC(=O)Nc1ccc(NS(=O)(=O)c2cccc3nonc23)cc1 | -1
CN(C)S(=O)(=O)c1cccc(NC(=O)COc2ccc(S(=O)(=O)N3CCOCC3)cc2Cl)c1 | 1
COc1cc(-c2noc(C)c2C(=O)NCCc2ccccc2)cc(OC)c1OC | -7
Clc1ccc(C(Cl)(Cl)Cl)c(Cl)c1 | 0

Molecules listed so far containing fluorine, in the order listed:
SMILES | Mtb bLac sens
COc1ccc(C=NNC(=O)c2ccccc2OCc2ccc(F)cc2)c(OC)c1 | 4
O=C(OCCOc1ccccc1F)c1cccc(S(=O)(=O)N2CCOCC2)c1 | -1
Cc1onc(-c2c(F)cccc2Cl)c1C(=O)Nc1ccc(Cl)c(S(=O)(=O)N(C)C)c1 | -4
CCOC(=O)[C@H]1[C@H]2COc3ccc(C)cc3[C@@H]2N2C(=O)c3cc(F)ccc3NC(=O)[C@@]12C | -5
COc1ccc(S(=O)(=O)N2CCCCCC2)cc1C(=O)NCCc1ccc(F)cc1 | -3
O=C(COC(=O)CNC(=O)c1ccc(F)cc1)NC1CCCc2ccccc21 (centres undefined) | -4
CC1CCCC(NC(=O)COC(=O)c2cc(S(=O)(=O)N3CCOCC3)ccc2F)C1C (centres undefined) | -7
COc1ccc2c(c1)OC[C@H]1[C@H]2N2C(=O)c3cc(F)ccc3NC(=O)[C@@]2(C)[C@H]1c1ccccc1 | 1
O=C(COC(=O)C1CC2CCCC(C1)C2=O)Nc1cccc(F)c1 (centres undefined) | -7
Cc1onc(-c2ccccc2)c1C(=O)N/N=C/c1c(F)cccc1Cl | -1
CC(OC(=O)c1ccco1)C(=O)Nc1ccc(C(F)(F)F)cc1 (centres undefined) | -1
O=C(CSc1nnc(-c2ccco2)o1)Nc1c(F)cccc1F | 0
Cc1ccc(C(=O)NCC(c2ccc(F)cc2)N2CCOCC2)s1 (centres undefined) | -7
O=C(COc1ccccc1F)Nc1ccc2c(c1)CCC2 | 8
